Screens: PubChem BioAssay, National Center for Advancing Translational Sciences (NCATS)
miR-21 FLuc = qHTS Assay for Modulators of miRNAs and/orActivators of miR-21; AID 2288, 2010; HeLa miR-21 FLuc reporter, luciferase, 48 h; Potency, µM (doses to about 38.3 µM), for the others: top-dose reporter change, positive = more light; 340,000 tested, under 10 active; active = well fitted rising curve with a large enough effect; inconclusive = small, poorly fitted or top-dose-only effect; inactive = no such curve, though single readings can be large or run the other way;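 also: % of control where 0% means no effect; miR-21 action dims this reporter so a rising signal means less miR-21 action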
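HeLa cells stably expressing CMV-driven firefly luciferase with a downstream miR-21 binding sequence, endogenously expressing miR-21, were treated with titrations (up to about 40uM final) for 48 hours at 37 degree Celsius. Luciferase luminescence was read after lysis.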
GLA inh pH 4.5 = qHTS Assay for Inhibitors of Human alpha-Galactosidase at pH 4.5; purified enzyme, 4-MU-alpha-Gal fluorescence, pH 4.5; AID 1467, 2008; Alpha-galactosidase A (Homo sapiens), P06280; 230,000 tested, under 10 active; activity change, negative = inhibition, % at 105 µM; inconclusive = small, poorly fitted or top-dose-only inhibition, or a rising curve; inactive = flat fitted curve, though single readings scatter; no compound was filed as active;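 also: 0% = full activity with enzyme and -100% = basal without enzyme; dose as in the result columns while the protocol names 77 µM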
Rango-impB inh = qHTS Assay for Inhibitors of Rango (Ran-regulated importin-beta cargo) - Importin beta complex formation. Importin subunit beta-1 (Homo sapiens), Q14974. Rango CFP/YFP FRET sensor + importin beta, 45 min. Potency, µM (top dose mostly 92.2 µM), inactives show at the highest dose inhibition of complex formation. 340,000 tested, 0.031% active; active = rising FRET ratio curve, often small or poorly fitted; inconclusive = mostly compound fluorescence or quenching in the first reads; inactive = flat curves in all reads;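 also: potency is read from the fitted curve at half-maximal effect; 0% = DMSO wells and 100% = buffer wells lacking importin beta; nearly all actives have a fitted effect of over 15% in size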
Target sequence (Q14974 whole entry, looked up): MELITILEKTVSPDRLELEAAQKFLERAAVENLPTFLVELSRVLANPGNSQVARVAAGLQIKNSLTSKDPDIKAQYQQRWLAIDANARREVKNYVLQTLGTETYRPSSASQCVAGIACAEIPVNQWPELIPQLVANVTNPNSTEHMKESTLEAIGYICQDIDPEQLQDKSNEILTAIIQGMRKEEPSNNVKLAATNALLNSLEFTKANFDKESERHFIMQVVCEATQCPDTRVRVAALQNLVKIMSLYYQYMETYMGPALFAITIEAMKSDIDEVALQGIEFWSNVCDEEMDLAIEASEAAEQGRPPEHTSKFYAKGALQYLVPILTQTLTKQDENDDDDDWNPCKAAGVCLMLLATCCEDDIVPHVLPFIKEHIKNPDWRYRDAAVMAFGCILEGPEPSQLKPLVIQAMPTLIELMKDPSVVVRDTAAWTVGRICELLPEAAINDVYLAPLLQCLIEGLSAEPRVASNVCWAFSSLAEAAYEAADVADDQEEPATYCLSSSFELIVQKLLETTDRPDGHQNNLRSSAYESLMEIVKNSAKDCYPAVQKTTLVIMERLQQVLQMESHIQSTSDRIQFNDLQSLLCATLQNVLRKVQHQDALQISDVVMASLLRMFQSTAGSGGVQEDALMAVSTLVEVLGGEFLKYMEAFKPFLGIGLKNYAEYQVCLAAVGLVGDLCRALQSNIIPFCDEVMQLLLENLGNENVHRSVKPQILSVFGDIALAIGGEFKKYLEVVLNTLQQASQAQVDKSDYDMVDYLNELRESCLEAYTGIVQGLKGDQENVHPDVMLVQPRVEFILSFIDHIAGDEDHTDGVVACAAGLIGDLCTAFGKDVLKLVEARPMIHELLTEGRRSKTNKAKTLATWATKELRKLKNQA
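Inhibition scored from the CFP 486 nm/YFP 530 nm FRET ratio 45 min after adding 0.125 microM importin beta to 50 nM Rango biosensor preincubated 5 min with compound (room temperature, PBS with DTT, Tween-20, BSA). No-importin wells as positive control.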
Rango dissoc inh = qHTS Assay for Inhibitors of RanGTP induced Rango (Ran-regulated importin-beta cargo) - Importin beta complex dissociation. Biochemical FRET Rango-importin beta, RanGTP-induced dissociation. 340,000 tested, 0.071% active. Potency, µM (top dose mostly 46.1 µM), for inactives: at the highest dose activity change, negative = inhibition. Snurportin-1 (Homo sapiens) + GTP-binding nuclear protein Ran (Homo sapiens) + Importin …; active means falling FRET ratio curve, often poorly fitted, with flat reads before Ran was added; inconclusive means other falling curves, or compound fluorescence or quenching; inactive means flat or rising ratio curve;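 also: potency is read from the fitted curve at half-maximal effect; % of control where 0% means no effect; nearly all actives have a fitted effect of over 45% in size; -100% = wells without RanGTP and RCC1; the record marks most hits as doubtful in a second field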
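Recombinant Rango FRET biosensor (EYFP–snurportin 1 IBB–cerulean CFP10) at 0.1 uM premixed with 0.25 uM importin beta in PBS, 1 mM DTT, 0.02% Tween-20, 0.1% BSA. Compound added 5 min; RanGTP-RCC1 (0.6 uM Ran, 2 mM GTP, 0.2 uM RCC1) then triggers release, read at 45 min.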
Starred values were filed as active, the others as inactive; ? = inconclusive; / = not tested or not shown; & = joins results of further samples. The list is partial. The share of hits here may be higher or lower than overall.

Structure,miR-21 FLuc,Rango-impB inh,GLA inh pH 4.5,Rango dissoc inh
O=C(O)C(O)(c1ccccc1)C1CCCC1 (configuration not stated),0%,1.5%,3,13%
CN(C)CCSC1c2ccccc2CSc2ccccc21 (configuration not stated),/,-7.9%,/,-5%
COc1cc(/C=N/NC(=O)CN2CCCCC2)ccc1OCc1ccccc1,-42%,1.4%,-9,0%
CC1(CCO)C(=O)NC(=S)NC1=O,/,1.3%,/,17%
C#C[C@]1(O)CCC2C3C(CC[C@@]21C)[C@@]1(C)CC[C@@H](O)CC1=C[C@H]3O (some centres not stated),/,0.3%,/,-10%
CC(=O)N1CC(=O)Nc2ccc(Cl)cc2C1c1ccc(F)cc1 (configuration not stated),-15%,0.9%,4,4%
O=c1c2ccccc2nc(/C=C/c2ccc(O)cc2)n1-c1cccc(O)c1,11%,?,-6,?
O=C(O)c1cn(Cc2ccccc2)nc1-c1ccccc1,-2%,0.7%,4,7%
COc1ccccc1OCC#CCN1CCCCCC1,-2%,-1.4%,-15,-14%
CC1=C2C(=O)C3C(CC=C4CC(OC5OC(O)C(O)C(O)C5CO)CCC43C)C2CCC12OC1CC(C)CNC1C2C (configuration not stated),1%,2.4%,6,-1%
O=C(O)CC[N+](=O)[O-],/,0.3%,-14&7,15%
O=S(=O)(c1ccc(F)cc1)N1CCCCC1c1cccnc1 (configuration not stated),-3%,-7.3%,-4,0%
c1ccc(CNC2CN3CCC2CC3)cc1 (configuration not stated),/,1.0%,/,1%
COc1ccc(S(=O)(=O)N2CC3CC(C2)c2cccc(=O)n2C3)cc1 (configuration not stated),4%,-1.4%,8,-8%
O=C(CCN1CC2CCC(CC2)C1)c1cccs1,/,1.1%,/,16%
Cc1cccn2c(=O)c3c(nc12)N1CCCCC1C1(C3)C(=O)N(C)C(=O)N(C)C1=O (configuration not stated),-1%,2.0%,-1,-2%
Cc1ccc(N2C(=O)NC(=O)/C(=C\c3ccc([N+](=O)[O-])o3)C2=O)cc1,6%,/,8,/
COc1cc(C=C2C(=O)NC(=O)NC2=O)ccc1O,2%,-0.2%,-18,-2%
COC(=O)C1=C(c2ccc(OC(F)(F)F)cc2)C[C@@H]2CC[C@H]1N2C(=O)N1CCCC1,/,-0.3%,/,1%
COC(=O)C1=C(c2ccccc2)C[C@@H]2CC[C@H]1N2C(=O)N1CCC(C)CC1,/,-4.6%,/,5%
Cc1ccc2nc(N3CCN(C)CC3)[nH]c2c1,-38%,0.2%,-2,-4%
COc1ccc(CCn2c(O)c(C=NCCCn3ccnc3)c(=O)[nH]c2=O)cc1OC,-5%,1.2%,4,-18%
CCNC(=O)O/N=C(\C)c1sc(-c2ccc(Cl)cc2)nc1C,4%,1.5%,-5,-11%
Cc1ccc(C(O)(C(=O)NNC(=O)CN2CCN(C)CC2)c2ccc(C)cc2)cc1,-8%,-0.8%,5,-10%
CC(C)(C)NC(=O)NC(=O)CN1CC=C(c2ccccc2)CC1,-1%,?,-1,-26%
COC(=O)C1=C(c2c(C)noc2C)C[C@@H]2CC[C@H]1N2C(=O)NCC1CC1,/,-0.1%,/,0%
CCOC(=O)C(O)(c1ccc(N=Cc2ccccc2O)c(C)c1)C(F)(F)F (configuration not stated),-2%,4.0%,3,?
Cn1cc(C(=O)OCC(=O)NC2CCCC2)c2ccccc21,/,0.8%,/,-9%
Oc1ccc(CC2CC3CCN2CC3)cc1O (configuration not stated),-2%,-0.2%,-5,-11%
CCC(=NCCCN1CCOCC1)c1c(O)n(-c2ccccc2C)c(=O)[nH]c1=O,-2%,-0.6%,0,15%
COc1ccc(/C=N\N=C(N)N)cc1,20%,0.5%,2,25%
COC(=O)C1C=C2c3cccc4[nH]cc(c34)CC2N(C)C1 (configuration not stated),2%,/,3,/
O=C(O)c1ccccc1C(=O)O,/,?,/,-34%
CC(=O)Nc1nc(CCl)cs1,-5%,0.7%,13,1%
CO[C@H]1CC=C2CCN3CCC4=C(CC(=O)OC4)[C@]23C1,/,4.2%,-5&2,18%
CCCNC(=O)N1CCC2(CC1)OCCO2,0%,-1.2%,-4,7%
Cn1c(O)c(Cc2ccc(OCc3ccccc3)cc2)c(=O)n(C)c1=O,-28%,0.1%,/,1%
COC1C(OC(=O)c2ccc(C)[nH]2)C(O)C(Oc2ccc3c(O)c(NC(=O)c4ccc(O)c(CC=C(C)C)c4)c(=O)oc3c2Cl)OC1(C)C (configuration not stated),15%,2.5%,-9,9%
CN(C(=O)Oc1cccc2ccccc12)C1C=CCC1 (configuration not stated),/,-1.7%,/,-2%
COC(=O)C1=C(c2ccc(OC)c(OC)c2)C[C@@H]2CC[C@H]1N2C(=O)NC1CC1,/,3.1%,/,-16%
O=C1OC(c2ccc([N+](=O)[O-])cc2)=N/C1=C/N1CC2CC(C1)c1cccc(=O)n1C2 (configuration not stated),0%,?,-3,-5%
C=CCc1ccc(OCCn2nnc3ccccc32)c(OC)c1,-30%,3.1%,/,0%
CCCCCCNc1nc(OC)nc(N2CC3CC(C2)c2cccc(=O)n2C3)n1 (configuration not stated),-3%,3.2%,-1,0%
CCN1C(=NCCOC)N[C@@H](c2cccc(F)c2)C(C(=O)OC)=C1C,1%&3%,?,/,-22%
CN1CC(C(=O)c2ccc(Cl)cc2)C(c2ccccc2)C1 (configuration not stated),-12%,3.6%,/,-2%
COC(=O)[C@]1(C)C[C@H]1[C@H](NP(=O)(c1ccccc1)c1ccccc1)c1ccccc1,-1%,-2.4%,-10&-5,-9%
O=c1[nH]c(=O)n(-c2cccc3ccccc23)c(O)c1/C=N/N1CCCCC1c1cccnc1 (configuration not stated),2%,0.4%,4,-22%
O=C(c1cn(Cc2ccccc2)c2ccccc12)C1CC1,-13%,3.2%,-13,0%
CCCCOC(=O)c1ccccc1C(=O)OCc1ccccc1,/,0.3%,/,2%
Cc1ccc(C)c(NC2=NCCCS2)c1,-2%,0.1%,6,1%
N#Cc1c(N2CCNCC2)nc(-c2ccco2)c2c1CCCC2,-6%,-1.8%,-27,-6%
CCOP(=O)(OCC)C(NC(=O)c1ccccc1)C(Cl)(Cl)Cl (configuration not stated),-2%,4.3%,7,1%
CSc1ncc(CN2CCCC(C(=O)c3ccccc3SC)C2)cn1 (configuration not stated),-4%,2.4%,1,13%
Clc1ccc(OCC#CCN2CCCC2)cc1,-35%,-1.3%,1,12%
N/C(=N\[N+](=O)[O-])N1CCN(C(=O)c2ccccc2)CC1,1%,1.0%,-19,0%
COc1ccccc1-n1c(O)c(C=NCCN2CCNCC2)c(=O)[nH]c1=O,-4%,-0.6%,4,-3%
Cc1ccc2c(c1)C1CN(C)CCC1N2C(=O)Nc1cccc(Cl)c1 (configuration not stated),-35%,5.0%,-2,1%
COc1ccc(OCC(=O)N2CCN(Cc3ccc4c(c3)OCO4)CC2)cc1,2%,5.4%,-5,15%
O=C(c1ccccc1)C(CN1CCCC1)c1ccccc1 (configuration not stated),?,2.6%,-2,-9%
COc1ccc(CN2CCN(C(=O)COc3cccc(C)c3)CC2)c(OC)c1,0%,4.2%,-6,-4%

Single records, from the list above. Screens in order: miR-21 FLuc, Rango-impB inh, GLA inh pH 4.5, Rango dissoc inh
Cc1ccc2c(c1)C1CN(C)CCC1N2C(=O)Nc1cccc(Cl)c1 (configuration not stated) across the screens: -35%, 5.0%, -2, 1%
CSc1ncc(CN2CCCC(C(=O)c3ccccc3SC)C2)cn1 (configuration not stated) across the screens: -4%, 2.4%, 1, 13%
Cc1ccc(C)c(NC2=NCCCS2)c1 across the screens: -2%, 0.1%, 6, 1%
Clc1ccc(OCC#CCN2CCCC2)cc1 across the screens: -35%, -1.3%, 1, 12%

Carrying on.
Structure,miR-21 FLuc,Rango-impB inh,GLA inh pH 4.5,Rango dissoc inh
Cc1cccc(CN2CCCC(C(=O)c3cccc(OC(C)C)c3)C2)n1 (configuration not stated),0%,-1.3%,5,48%
Cc1ccc(C(C)C)c(OCC(=O)N2CCN(Cc3nc4cc([N+](=O)[O-])ccc4n3C)CC2)c1,-2%,-0.7%,-9,-2%
CC1(C)CCCN1CCC(C(N)=O)(c1ccccc1)c1ccccc1,/,-0.6%,/,0%
COC(=O)c1ccc(CC(C(=O)c2ccccc2)N(C)C)cc1 (configuration not stated),-54%,5.2%,/,-1%
COC(=O)C1=C(c2c(C)noc2C)C[C@@H]2CC[C@H]1N2C(=O)N1CCCC1,/,1.1%,/,-3%
N#Cc1ccc(OCC(=O)N2CCN(Cc3ccc4c(c3)OCO4)CC2)cc1,2%,1.9%,2,-9%
CCOc1c(Cl)cc(CNCCc2c[nH]c3ccccc23)cc1OC,-9%,-1.5%,-10,11%
Cc1ccc(-n2c(/C=C/c3ccc4c(c3)OCO4)nc3ccccc3c2=O)cc1,1%,/,29,/
CCc1ccc(N2C(=O)NC(=O)/C(=C\c3cccn3CCOc3ccc(C(C)C)cc3)C2=O)cc1,-54%,-3.2%,-2,-2%
COC(=O)C1=C(c2ccccc2OCc2ccccc2)C[C@@H]2CC[C@H]1N2C(=O)NCCOc1ccccc1Cl,/,-1.1%,/,-21%
Cn1c(O)c(C=NCCCNC2CCCCC2)c(=O)n(C)c1=O,-8%,-5.3%,6,-9%
CC1CN(CC(=O)c2ccccc2Cl)CC(C)O1 (configuration not stated),-1%,5.1%,/,9%
CCC1(C(=O)c2ccc(C)cc2)C2c3ccccc3OC(=O)C21C(=O)O (configuration not stated),-4%,-2.3%,-1,4%
O=[N+]([O-])c1ccc(N2CCCC(C(F)(F)F)C2)c2ccncc12 (configuration not stated),1%,-0.8%,/,0%
CCOc1cccc(=NC2CCCCC2)c2c(C)n(C)c(C)c12,?,2.4%,2,-11%
Cc1nc2cc(C(F)(F)F)ccc2n1C1CCN(Cc2nnnn2Cc2ccc3c(c2)OCO3)CC1,13%,2.1%,4,-10%
Cc1cc(Cc2c(O)[nH]c(=S)[nH]c2=O)ccc1OC(C)C,-4%,0.4%,/,-6%
Fc1ccc(C2NCCc3[nH]cnc32)cc1 (configuration not stated),1%,-0.2%,2,10%
COc1cc(C2NCc3ccccc3-n3cccc32)ccc1O (configuration not stated),-10%,-0.4%,2,1%
CN1CCN(c2nc(N)cc(=O)[nH]2)CC1,2%,-0.9%,6,9%
COc1ccc(CCN2CCCC(CN(C)C(=O)c3cc(C)oc3C)C2)cc1 (configuration not stated),-73%,-5.5%,/,-8%
CC(=NCc1cccnc1)c1c(O)n(-c2ccccc2C)c(=O)[nH]c1=O,-1%,3.3%,-2,-12%
COc1cc2c(c(OC)c1OC)-c1ccc(O)c(=O)cc1[C@@H](NC(C)=O)CC2,/,0.5%,-16,-6%
